# NPYLR7 agonist = activates Aedes aegypti NPYLR7 receptor. HEK293T NPYLR7/Galpha15, GCaMP6s calcium fluorescence. activation, % at 10 µM. hit rate 0.15% among 270,000. AID 1259423; in the data active means activation above about 40%;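 further: 0% = vehicle and 100% = reference agonist at the receptor; some compounds past the cut are filed as inactive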
# NPYLR7 agonist max-min = recorded beside NPYLR7 agonist, whose call it bears; activation, %; measured here: Max-Min RFU normalised activation; some inactives read as strong as hits;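 span of the calcium signal over five minutes; 0% = vehicle and 100% = native peptide agonist; compound fluorescence can raise it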
# Starred values were filed as active, the others as inactive; & = joins results of further samples.
SMILES,NPYLR7 agonist,NPYLR7 agonist max-min
COc1ccc(NC(=O)C2CC(=O)N(C)C(=Nc3cccc(F)c3)S2)cc1 (configuration not stated),2,1
Cc1ccc(CNC(=O)c2cnc3ccccn23)s1,0,1
O=C(CSc1nnc(-c2ccccc2Cl)n1-c1ccccc1Cl)N1CCCC1,-8,0
Cc1cccc(-n2c(=O)[nH]c3c(C(N)=O)nc(CC(C)C)nc32)c1,10,18
CC(C)(C)c1ccc(C(=O)N2CCN(c3nc4ccccc4s3)CC2)cc1,-14,-18
O=C(NCc1cccc(C(F)(F)F)c1)c1c[nH]c(=O)s1,5,3
COc1ccc(-n2c(CCC(=O)NCCC#N)ccc2-c2ccc(Cl)cc2)cc1,-2,-6
CC1(C)C2CCC1(C)C(NS(=O)(=O)c1ccc(F)c(F)c1)C2 (configuration not stated),7,3
N#Cc1ccc(NCCc2cccc(F)c2)cn1,-2,-6
CN1OCC(S(=O)(=O)N(C)C2CCCCC2)C1c1cccc(Oc2ccccc2)c1 (configuration not stated),5,2
Cc1cc(C)cc(-n2nc3c(c2NC(=O)c2ccc(N4C(=O)CCC4=O)cc2)CSC3)c1,0,6
O=C(c1ccc2ncccc2c1)N1CCCC(N2CCN(c3ccc(F)cc3)CC2)C1 (configuration not stated),13,4
Cc1occc1C(=O)N1CCC(C(Cc2ccc(F)cc2F)N(C)C(=O)C2CC2)CC1 (configuration not stated),5,2
CCOC(=O)c1c(C)[nH]c(C(=O)COC(=O)c2c(CC)noc2C)c1C,9,9
Cc1cccc(-n2nc(C(C)(C)C)c3c2N(CC(=O)NCc2ccco2)C(=O)CSC3c2ccc3c(c2)OCO3)c1 (configuration not stated),16,3
O=C(CCCCl)Nc1ncnc2sc3c(c12)CCCC3,-5,-1
Cc1cc(C)nc(NS(=O)(=O)c2ccc(N=Cc3cc(Cl)cc(Cl)c3O)cc2)n1,1,-7
Cc1ccc(Nc2cn[nH]c(=S)n2)c(C)c1,-5,-8
Cc1ccc(NC(=O)C(=O)N2CCn3cncc3C2)cc1,-7,-11
Cc1cnc(NCCCc2nn[nH]n2)nc1N(C)C,4,3
CNCC(=O)N(C)Cc1ccccc1C(F)(F)F,6,1
O=C(CCCn1cncn1)N1CCCC(O)(CO)CC1 (configuration not stated),11,8
Clc1ccccc1-c1nc(-c2cccnc2)no1,-10,-19
Cc1cc(C(=O)N2CCN(c3c4c(nc5ncnn35)CCCC4)CC2)no1,3,-1
CN(Cc1ccccc1N1CCCCC1)CN1C(=O)NC2(CCCCCCC2)C1=O,6,-1
O=C(Nc1cccs1)Nc1nc(-c2nc3ccccc3s2)cs1,1,0
COc1ccc(-c2cnc(-c3ccc(CNC(=O)c4ccc(F)c(C(F)(F)F)c4)cc3)[nH]2)cc1,22,30
CNS(=O)(=O)c1ccc(CN2CCN(C)C(C(=O)O)C2)cc1 (configuration not stated),14,10
CCN(CC)c1ccc(CN(Cc2ccc(F)cc2)C(=O)Nc2ccccc2OC)c(OS(C)(=O)=O)c1,5,9
O=C(Nc1ccccc1OC(F)F)N[C@H](Cc1ccccc1)C(=O)N1CCC(C(=O)N2CCCCC2)CC1,3,2
O=c1[nH]c2ccc(S(=O)(=O)N3CCCC3)cc2[nH]1,0,-3
COC(=O)c1cc2n(n1)CCN(Cc1cccn1-c1ncccn1)C2,9,8
O=C(Nc1ccc2nc(C3CC3)sc2c1)C1CCCN1C(=O)C1CC1 (configuration not stated),1,1
COc1cccc(C(=O)N2CCN(CC(OCc3ccc(C#N)cc3)c3cccc(N4CCCC4)c3)CC2)c1 (configuration not stated),6,2
CSc1cccc(CN(C)Cc2nc[nH]c2C)c1,1,10
Cc1cccn2c(=O)nc(SCC(=O)N(C)c3ccccc3)nc12,2,2
CCn1c(SC(C(=O)N(C)C)C(C)C)nnc1-c1ccccc1C (configuration not stated),6,5
CCOC(=O)N1CCN(Cc2ccc3c(c2)CN(C(=O)[C@@H]2C[C@H]2c2ccccc2)CCO3)CC1,4,4
O=C1c2ccccc2NC(c2csnn2)N1c1cccc(C(F)(F)F)c1 (configuration not stated),2,2
CCCSc1ncccc1C(=O)N1CCN(Cc2cc(=O)c(OCc3ccc(C(F)(F)F)cc3)co2)CC1,9,-1
Cc1ccccc1S(=O)(=O)NC(=O)C1(C)CCN1C(=O)Cc1ccc(-c2ccccc2)cc1 (configuration not stated),0,-3
COc1ccc(OC)c(C2CCCN2C(=O)Nc2cnn(-c3ccncc3)c2)c1 (configuration not stated),-8,-8
CCCCn1ncc(C)c1NC(=O)C(=O)N1c2ccccc2CC1C (configuration not stated),-5,-9
COCCN(Cc1c(C)nn(-c2cccc(F)c2)c1N1CCN(C)CC1)C(=O)Cc1cccs1,3,16
Cc1ccc(-c2nn(CN3CCc4sccc4C3)c(=S)n2C)cc1,-1&24,2&14
CSc1nc(Oc2ccc(=O)[nH]n2)nc(N(C)C)n1,3,1
CCn1ncnc1C(C)NC(=O)c1nc(C(C)C)cs1 (configuration not stated),28,12
COc1ccc2c(c1)OCC(C(=O)Nc1cc(C)ccc1C)=C2,10,8
CC(C)c1nccc(C(=O)N[C@H]2C[C@H]3C(=O)N(C)CC(=O)N3C2)n1,-3,-5
O=C(Nc1ccccc1)C1CCCN1c1ncccn1 (configuration not stated),-2,-3
C=CCn1c(COc2ccc3ccccc3c2)nc2ccccc21,2,2
Fc1cccc(F)c1-c1csc(NC2CC2)n1,0,-2
O=C(Nc1nnc(-c2ccc3c(c2)OCO3)s1)C1CCCN1C(=O)C12CC3CC(CC(C3)C1)C2 (configuration not stated),16,23
CN(Cc1ccccc1O)C(=O)C1CCCCN1Cc1ccncc1 (configuration not stated),6&-23,5&-22
Cc1ccc(CC(=O)N2CCCC2CC(O)c2ccccc2)cn1 (configuration not stated),7,5
O=C(c1ccc2ccccc2c1)C1CCCN(C(=O)CN2C(=O)CSC2=O)C1 (configuration not stated),-2,-2
COc1cccc(C=C2N=C(c3ccccc3F)OC2=O)c1,7,5
O=C1/C(=C/c2ccc(-c3ccc(Cl)c(Cl)c3)o2)C=C(c2ccccc2)N1c1ccc(F)cc1,-1,4
O=c1c2cc3c(=O)n(-c4ccccc4Cl)ccc3nc2ccn1CCN1CCOCC1,1,-1
CCn1c(C2CCCN(C(=O)c3ccc(Cl)c(F)c3)C2)nn(C)c1=O (configuration not stated),8,2

# The list continues.
SMILES,NPYLR7 agonist,NPYLR7 agonist max-min
CCC1=NN(C(=O)c2cccnc2)C(O)(C(F)(F)F)C1 (configuration not stated),2,0
CCN1CCN(Cc2nc(N)nc(N3CCCCC3)n2)CC1,4,2
CCC(NC(=O)c1cn(Cc2ccccc2F)nn1)c1ccncc1 (configuration not stated),6,3
COc1ccccc1N1CCN(C(=O)c2sc3ccccc3c2Cl)CC1,0,0
COCCN(CC(=O)N1CC(=O)N(c2ccc(Cl)cc2)C1)C(=O)c1ccc(C(F)(F)F)cc1,25,26
CN(C(=O)c1ccccc1OCC(N)=O)c1ccccc1,0,1
CN(CCc1cn[nH]c1)C(=O)c1cccc(CC2CCNCC2)c1,3,-7
Cc1nnc(SCC(=O)Nc2ccc(F)cc2)n1C1CCCCC1,14,3
CCc1nc(-c2ccccc2)nc(N2CCN(C(=O)N(C)C)CC2)c1Cc1cccc(Cl)c1,7,15
COc1cc(CN2CCN(Cc3c(F)cccc3Cl)CC2CCO)cc(OC)c1 (configuration not stated),7,3
CCOC(=O)c1c(NC(=O)c2cccs2)sc(C(=O)Nc2ccccc2C(F)(F)F)c1C,-8,-16
CCCCCn1c(SCc2ccc(Cl)cc2)nc2c1c(=O)[nH]c(=O)n2C,2,19
CC(C)c1nccc(CN2CCC(Cc3nnc(CO)n3C)CC2)n1,32,14
O=C(C1CCS(=O)(=O)C1)N1CCNCC1 (configuration not stated),8,17
CC(C)(C)c1nnc2sc(=S)[nH]n2c1=O,1,7
CCC(C)Nc1n[nH]c(=S)s1 (configuration not stated),-2,-2
CN(CCC(O)c1ccccc1)C(=O)c1cc(COc2cccc3cnccc23)on1 (configuration not stated),-4,-6
CCOC(=O)CN(CC(=O)NC(=O)Nc1ccc(C)cc1C)C(C)C,13,13
COc1ccc(S(=O)(=O)N=C2C=CC(=NS(=O)(=O)c3ccc(OC)cc3)C(Cl)=C2)cc1,9,5
O=C(OCc1ccccc1)N1C[C@H](Oc2ccccn2)[C@H]2C[C@@H]1CC[C@H]2N1CCOCC1,1,3

# Quoted at random: four records from the list, in no set order.
SMILES,NPYLR7 agonist,NPYLR7 agonist max-min
COCCN(CC(=O)N1CC(=O)N(c2ccc(Cl)cc2)C1)C(=O)c1ccc(C(F)(F)F)cc1,25,26
CCCCCn1c(SCc2ccc(Cl)cc2)nc2c1c(=O)[nH]c(=O)n2C,2,19
CCc1nc(-c2ccccc2)nc(N2CCN(C(=O)N(C)C)CC2)c1Cc1cccc(Cl)c1,7,15
CC(C)c1nccc(CN2CCC(Cc3nnc(CO)n3C)CC2)n1,32,14

# Additional entries.
SMILES,NPYLR7 agonist,NPYLR7 agonist max-min
O=S(=O)(NCCc1csc2nc(-c3cccc(F)c3)nn12)c1ccc(Cl)s1,-4,-1
O=C(N1CCc2c(nc[nH]c2=O)C1)C1(Cn2cccn2)CC1,1,13
COc1cc(C2=N/C(=C\c3coc4ccccc4c3=O)C(=O)O2)cc(OC)c1OC,0,-5
CC(NC(=O)c1cn(Cc2ccccc2Cl)nn1)c1cnn(C)c1 (configuration not stated),2,-3
CSc1nnc(CC2CCN(C(=O)c3c(C)cc(=O)oc3C)CC2)n1C,16,3
C=CCNC(=O)N1CCN(C(C(=O)NCCc2ccccc2)C2CCCC2)CC1 (configuration not stated),-9,-10
Cc1nnc(SCC2CCN(C(=O)OC(C)(C)C)C2)s1 (configuration not stated),3,1
O=C(/C=C/c1ccc(Cl)cc1Cl)Nc1nc2ccccc2s1,-5,-11
COc1ccc(-n2nc([N+](=O)[O-])c(=Nc3ccc(Br)cc3)n2O)cc1,-7,-9
Cn1c(-c2cc3c(s2)CCC(C(C)(C)C)C3)n[nH]c1=S (configuration not stated),3,13
COc1cc(C)ccc1S(=O)(=O)NC(=O)C1(C)CCN1C(=O)C1(c2ccc(Cl)cc2)CCC1 (configuration not stated),1,2
CN(C)c1ccc(/C=C/c2cc[n+](C)n2C)cc1,-1,-2

# Among those listed so far, these have an aryl methoxy group.
SMILES,NPYLR7 agonist,NPYLR7 agonist max-min
COc1ccc(NC(=O)C2CC(=O)N(C)C(=Nc3cccc(F)c3)S2)cc1 (configuration not stated),2,1
COc1ccc(-n2c(CCC(=O)NCCC#N)ccc2-c2ccc(Cl)cc2)cc1,-2,-6
COc1ccc(-c2cnc(-c3ccc(CNC(=O)c4ccc(F)c(C(F)(F)F)c4)cc3)[nH]2)cc1,22,30
CCN(CC)c1ccc(CN(Cc2ccc(F)cc2)C(=O)Nc2ccccc2OC)c(OS(C)(=O)=O)c1,5,9
COc1cccc(C(=O)N2CCN(CC(OCc3ccc(C#N)cc3)c3cccc(N4CCCC4)c3)CC2)c1 (configuration not stated),6,2
COc1ccc(OC)c(C2CCCN2C(=O)Nc2cnn(-c3ccncc3)c2)c1 (configuration not stated),-8,-8
COc1ccc2c(c1)OCC(C(=O)Nc1cc(C)ccc1C)=C2,10,8
COc1cccc(C=C2N=C(c3ccccc3F)OC2=O)c1,7,5
COc1ccccc1N1CCN(C(=O)c2sc3ccccc3c2Cl)CC1,0,0
COc1cc(CN2CCN(Cc3c(F)cccc3Cl)CC2CCO)cc(OC)c1 (configuration not stated),7,3
COc1ccc(S(=O)(=O)N=C2C=CC(=NS(=O)(=O)c3ccc(OC)cc3)C(Cl)=C2)cc1,9,5
COc1cc(C2=N/C(=C\c3coc4ccccc4c3=O)C(=O)O2)cc(OC)c1OC,0,-5
COc1ccc(-n2nc([N+](=O)[O-])c(=Nc3ccc(Br)cc3)n2O)cc1,-7,-9
COc1cc(C)ccc1S(=O)(=O)NC(=O)C1(C)CCN1C(=O)C1(c2ccc(Cl)cc2)CCC1 (configuration not stated),1,2

# These rows are one share of the data, so the mix of outcomes need not match the whole.
